# Screening results from PubChem.
# Sfp PPTase inh = inhibitors of Bacillus subtilis Sfp phosphopantetheinyl transferase; Potency, µM, inactives show max response, negative = inhibition, usual class: inhibitors; 310,000 tested, 3.5% active; Biochemical Sfp PPTase activity, qHTS; Q9F4F7; AID 1490; active = well fitted inhibition curve with a large enough effect; inconclusive = small, poorly fitted or top-dose-only effect, or another doubt; inactive = no such curve, though single readings can be large or run the other way;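 note: the enzyme is Sfp with the accession as filed and its product quenches rhodamine fluorescence; potency is the fitted concentration of half-maximal effect; 0% = enzyme reaction without inhibitor and -100% = no enzyme wells; top concentration of the series not given in the record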
#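 Step 1, compound plus 15 nM Sfp-PPTase, 15 min, room temperature. Step 2, add rhodamine-CoA (5 uM) and BHQ-2-YbbR (12.5 uM). Step 3, read 525/598 nm fluorescence at 0 and 30 min.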
# D2 PAM = potentiates the human D2 dopamine receptor allosterically; P14416; DiscoveRx D2 beta-arrestin cells, luminescence, 90 min; 100% = 57 uM dopamine signal; potentiation, % (concentration not given with the values); 360,000 tested, 0.23% active; AID 624464; active = potentiation of 50% or more; inconclusive = 30% to 50%; inactive = 30% or less;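 note: compound concentration not given in the record; tested on top of an EC20 dose of dopamine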
#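 PathHunter D2 cells, attached overnight at 37 deg C, received compound in DMSO plus dopamine at EC20 (50 nM final) for 90 min at 37 deg C. Beta-arrestin recruitment was read as luminescence after 1 h with detection reagent at ambient temperature.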
# TRPV1 PAM = potentiators of human vanilloid receptor 1 (TRPV1); Q8NER1; TRPV1-expressing cells, Fluo-8 calcium influx, capsaicin EC20 potentiation; host cell line not named in the record; control for the full effect not named in the record; potentiation, % at 8.33 µM; 320,000 tested, 0.02% active; active means potentiation above 80%; inconclusive means 30% to 80%; inactive means below 30%; note: 0% is about no effect
# Target sequence (Q8NER1 whole entry, looked up): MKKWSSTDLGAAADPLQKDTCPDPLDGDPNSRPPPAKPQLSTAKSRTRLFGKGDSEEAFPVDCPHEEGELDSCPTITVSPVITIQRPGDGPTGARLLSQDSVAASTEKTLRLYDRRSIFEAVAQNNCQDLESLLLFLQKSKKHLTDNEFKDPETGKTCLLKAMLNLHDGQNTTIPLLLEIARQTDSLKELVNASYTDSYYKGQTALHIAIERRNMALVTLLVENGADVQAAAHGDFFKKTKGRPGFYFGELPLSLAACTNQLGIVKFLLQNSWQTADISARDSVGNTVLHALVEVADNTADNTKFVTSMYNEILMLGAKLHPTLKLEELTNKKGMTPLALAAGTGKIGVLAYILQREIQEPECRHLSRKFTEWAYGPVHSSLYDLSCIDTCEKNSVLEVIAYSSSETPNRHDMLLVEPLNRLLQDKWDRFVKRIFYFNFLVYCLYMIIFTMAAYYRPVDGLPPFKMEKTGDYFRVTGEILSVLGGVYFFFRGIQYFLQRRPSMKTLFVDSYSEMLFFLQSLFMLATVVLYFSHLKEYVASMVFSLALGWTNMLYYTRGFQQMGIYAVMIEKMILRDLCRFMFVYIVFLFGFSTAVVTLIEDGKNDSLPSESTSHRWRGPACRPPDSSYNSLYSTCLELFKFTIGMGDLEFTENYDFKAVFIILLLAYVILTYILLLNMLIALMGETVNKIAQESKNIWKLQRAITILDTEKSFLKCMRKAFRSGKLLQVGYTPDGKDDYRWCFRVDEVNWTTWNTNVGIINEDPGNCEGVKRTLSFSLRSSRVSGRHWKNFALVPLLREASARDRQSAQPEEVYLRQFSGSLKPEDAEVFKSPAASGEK
#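 TRPV1-expressing cells were cultured overnight at 35.5C and loaded with Fluo-8 calcium dye for 40 to 90 min at room temperature. After a 10 s baseline, compound was added and calcium influx was read kinetically for 3 min (ex 480/em 520 nm).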
# gsp agonist = gsp mutant agonism | 340,000 tested, 0.13% active | Potency, µM (titrated, usually from 76.9 µM), for the others: at the top dose activation (cAMP increase), hits mostly activators | gsp mutant cells, cAMP HTRF, 30 min; control for the full effect not named in the record; active = well fitted activation curve with a large enough effect; inconclusive = small, poorly fitted or top-dose-only effect, or another doubt; inactive = no such curve, though single readings can be large or run the other way; cell line not stated here;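 note: phosphodiesterase inhibitor Ro 20-1724 added with compounds to block cAMP breakdown; potency is the fitted concentration of half-maximal effect; nearly all actives have a fitted effect of over 60% in size; about a fifth of the inactives were tested at one dose only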
#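 Cells in DMEM/10% FBS with G418 were pretreated with compounds in DMSO plus […] (300 uM stock) for 30 min at 37C. cAMP was measured by HTRF (cAMP-d2 plus anti-cAMP antibody-K) after 30 min at room temperature.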
# gsp antag = gsp mutant antagonism. 340,000 tested, 0.4% active. gsp-mutant cells, cAMP HTRF, 30 min; control for the full effect not named in the record. Potency, µM (series often up to 76.9 µM), inactives show top-dose activity change, negative = inhibition, usual class: inhibitors; active = falling curve of any shape with a large fitted effect; inconclusive = falling curve, mostly with a smaller effect; inactive = flat or rising curve; cell line not stated here;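 note: intracellular cAMP measured with PDE inhibitor Ro 20-1724 present during compound exposure; potency is the fitted concentration of half-maximal effect; % is set by controls: 0 for no effect and ±100 for the full control effect; nearly all actives have a fitted effect of over 65% in size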
#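 HTRF cAMP measurement after 30 min RT detection following 30 min, 37C compound treatment alongside […] (added as 300 uM solution) in G418-selected cells seeded at 2000/well and grown 16–24 h.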
# Menin-MLL FL inh = menin-MLL binding inhibition, fluorescein peptide; Fluorescence polarization, fluorescein-MLL peptide displacement from menin; FP activity change, % at 61.4 µM; 290,000 tested, under 10 active; AID 1766; inconclusive = falling polarisation curve, or a change in total fluorescence; inactive = total fluorescence flat and polarisation flat or rising; no compound was filed as active; the % refers to the polarisation; negative = inhibition;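 note: % of control where 0% means no effect; inhibitors lower the polarisation; unlabelled MLL peptide was the positive control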
# ClpP mod = qHTS Assay for Activators of ClpP; purified B. subtilis ClpP, FRET peptide cleavage, 20 min; Potency, µM (doses to about 57.5 µM), inactives show at the top dose activity change, negative = active; 340,000 tested, 1.9% active; AID 651965, 2013; active = well fitted falling curve with a large enough effect; inconclusive = small, poorly fitted or top-dose-only effect; inactive = no such curve, though single readings can be large or run the other way; note: potency is the fitted concentration of half-maximal effect; the source files actives as falling curves though it sought activators and does not explain the sign; nearly all actives have a fitted effect of over 65% in size; many hits overshoot -100%
# Target sequence (P80244 whole entry, looked up): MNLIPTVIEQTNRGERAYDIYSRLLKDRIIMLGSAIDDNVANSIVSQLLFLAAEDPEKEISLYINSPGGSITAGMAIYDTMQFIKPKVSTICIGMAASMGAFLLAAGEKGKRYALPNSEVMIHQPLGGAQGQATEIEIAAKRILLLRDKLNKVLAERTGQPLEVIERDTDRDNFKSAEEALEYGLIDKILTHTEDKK
#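 ClpP 10 microg/mL final, pH 8 Tris/KCl buffer with BSA, glycerol, Tween-20; compound pinned in; FRET-FV substrate; RT 20 min; Ex320/Em430; ΔFRET vs ADEP 5.8 microM, DMSO, no enzyme.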
# * marks the source's active call; other numbers are inactive results; u = inconclusive; x = no result given; [ ] = remark or other dose.
SMILES,Sfp PPTase inh,D2 PAM,TRPV1 PAM,gsp agonist,gsp antag,Menin-MLL FL inh,ClpP mod
O=C1CC(c2ccco2)CC(O)=C1C=Nc1cc(Cl)ccc1O (stereo not given),-24%,8,15,-14%,-5%,u,-2.0%
Cc1ccc2c(cnn2C(=O)CCC(=O)NCc2ccccc2Cl)c1,-14%,-7,8,23%,-5%,0.4,-2.9%
COC(=O)C1=C(C)N(C(C)c2ccccc2)C(=O)/C1=C\c1ccco1 (stereo not given),-7%,-14,18,-23%,-7%,4.0,2.7%
COc1ccc(C(=O)OCC(=O)NCc2ccc3c(c2)OCO3)cc1[N+](=O)[O-],13%,-19,5,2%,0%,-0.5,u
CCOc1cc(CNc2ncc(-c3ccc(OC)cc3)n2C)ccc1O,-22%,-18,-4,21%,7%,-6.8,-6.1%
O=C(c1cc2cc(F)ccc2[nH]1)N1CCN(c2ccc(F)cc2)CC1,22%,-4,-9,6%,6%,2.1,-13%
Cc1ccc(SCCC(=O)N(C)C)cc1,10%,-7,6,10%,9%,1.4,-1.0%
C/C=C(\C)CN1CCc2cc(OC)c(OC)cc2C1,9%,-15,1,7%,3%,4.7,0.7%
COc1ccc(NC(=O)/C(C#N)=C\c2ccc(-c3cc(C(=O)O)ccc3C)o2)cc1,10%,-3,13,-24%,45µM*,8.6,-0.7%
CCOc1ccc2c(c1)-c1c(ssc1=S)C(C)(C)N2C,-23%,-14,3,1%,-9%,0.1,1.5%
N#CCCN(CCC#N)c1nnc(-c2ccccc2)s1,-2%,-15,-3,-16%,1%,-1.3,-12%
O=C(Nc1ccc(-n2cnnn2)cc1)C1CCC1,-17%,17,-7,u,14%,1.1,-12%
CCCCOC(=O)C1=C(C)Nc2ncnn2C1c1cccc(OC)c1 (stereo not given),-3%,11,2,u,2%,4.3,-1.0%
Cc1cc(NC(c2ccc(Cl)cc2)c2ccc3cccnc3c2O)no1 (stereo not given),6%,-17,16,u,-6%,0.2,-1.6%
O=C1N=C(O)CN1/N=C/c1ccc(-c2ccc([N+](=O)[O-])cc2)o1,x,8,x,x,-27%,8.7,0.5%
Cc1cc(-c2cc(C(=O)NCc3ccccc3)on2)nc(NC2CCCC2)n1,-7%,-7,10,x,-14%,0.1,-12%
Cn1nc(-c2ccc(C(=O)Nc3cccc(Cl)c3)cc2)c2ccccc2c1=O,5%,-10,4,-16%,-18%,3.6,-18%
Cc1cc(C(C)(C)C)ccc1OCCN(C)C,-24%,2,13,1%,6%,1.8,u
O=[N+]([O-])c1ccc(C[n+]2cccc3ccc4cccnc4c32)cc1,14µM*,-2,-1,-13%[15.4 µM],12%,10,x
CCOC(=O)c1ccc(NC(=O)c2nc[nH]c2C(=O)NC)cc1,8%,0,-4,x,-4%,-2.0,-12%
Cc1cccc(CC(=O)OCn2nnc3ccccc3c2=O)c1,2%,-1,-36,12%,7%,-0.4,0.1%
OCCN(CC#CC(O)(c1ccccc1)C1CCCCC1)CCO (stereo not given),-10%,-4,12,4%,-12%,-4.1,-0.3%
O=C(CN1CCN(S(=O)(=O)c2ccc(Cl)cc2)CC1)N1CCCC1,x,-4,26,1%[15.4 µM],16%,x,1.2%
Cc1cc(C)c(NC(=O)Nc2ccc3c(c2)OCO3)c(C)c1,-1%,-10,20,-53%[inhibitor],10%,1.2,0.1%
CCCCNS(=O)(=O)c1ccc2nc(SCC(=O)c3ccc(C#N)cc3)[nH]c2c1,-9%,11,1,12%,-12%,4.3,-1.0%
Cc1cc(C(=O)NCCC2=CCCCC2)ccc1[N+](=O)[O-],-11%,-15,-22,3%[15.4 µM],-3%,-0.3,x
Cc1cc(F)ccc1N1CCC(N2CCN(C)C(CCO)C2)CC1 (stereo not given),7%,-10,-10,-7%[15.4 µM],8%,-7.5,-1.2%
COC(=O)Nc1ccc(S(=O)(=O)N2CCCC(C(=O)N3CCCCC3)C2)cc1 (stereo not given),15%,1,14,4%[15.4 µM],1%,-0.6,x
COC(=O)c1cn(C(=O)c2ccc(C)c(C)c2)c2ccccc12,-2%,2,-11,u,15%,4.7,-2.8%
COc1cc(/C=C/C(=O)O)cc(S(=O)(=O)NCCCO)c1OC,24%,-7,7,-10%,1%,-1.7,28µM*
COC(=O)c1sc(NC(=O)c2cccc([N+](=O)[O-])c2)c(C(N)=O)c1C,u,-13,-5,1%,-7%,-2.4,1.3%
CCOC(=O)c1ccc(NC(=O)CS(=O)(=O)c2cn(CC)c3ccccc23)cc1,4%,-6,16,-7%,-17%,3.3,-5.0%
Cc1ccc(CCN2CC(C(=O)NC(C)C)CC2=O)cc1 (stereo not given),9%,-3,-1,-28%,2%,2.7,x
Cc1cccc(C)c1NC(=S)N1CC(C)OC(C)C1 (stereo not given),20%,-1,-12,9%[15.4 µM],7%,-1.6,x
N#Cc1ccc(CN(c2ccncc2)S(=O)(=O)c2ccccc2)cc1,7%,-4,7,17%[15.4 µM],0%,-7.5,x
O=C1NC(NS(=O)(=O)c2ccccc2)(C(F)(F)F)C(=O)N1Cc1cccnc1 (stereo not given),14%,6,0,9%,7%,-3.0,4.9%
NC(=O)[C@H](Cc1cc2ccccc2s1)NC(=O)[C@@H]1CC2(CC(c3cccc(NC(=O)[C@@H]4CCC(=O)N4)c3)=NO2)CN1C(=O)/C=C/c1c(F)cccc1Cl (stereo not given in full),-2%,1,11,x,-19%,0.1,-4.7%
Cc1ccc(S(=O)(=O)N2CCN(C(=O)COC(=O)CSc3cc(C)ccc3C)CC2)c(C)c1,x,-17,4,-7%,3%,x,-3.2%
CCCN=Cc1ccc(O)cc1,12%,-5,-19,-8%[15.4 µM],-5%,-2.0,x
CCCCOc1ccc(CC2CCC(=O)NC2=O)cc1 (stereo not given),2%,-3,-9,14%[15.4 µM],5%,-4.7,-2.2%

# One compound at a time (already shown):
# `Cc1cccc(C)c1NC(=S)N1CC(C)OC(C)C1` (stereo not given) is entered as Sfp PPTase inh: 20%; D2 PAM: -1; TRPV1 PAM: -12; gsp agonist: 9%[15.4 µM]; gsp antag: 7%; Menin-MLL FL inh: -1.6; ClpP mod: x
# `COC(=O)c1sc(NC(=O)c2cccc([N+](=O)[O-])c2)c(C(N)=O)c1C` is entered as Sfp PPTase inh: u; D2 PAM: -13; TRPV1 PAM: -5; gsp agonist: 1%; gsp antag: -7%; Menin-MLL FL inh: -2.4; ClpP mod: 1.3%
# `O=C1NC(NS(=O)(=O)c2ccccc2)(C(F)(F)F)C(=O)N1Cc1cccnc1` (stereo not given) is entered as Sfp PPTase inh: 14%; D2 PAM: 6; TRPV1 PAM: 0; gsp agonist: 9%; gsp antag: 7%; Menin-MLL FL inh: -3.0; ClpP mod: 4.9%

# Going on with the list:
SMILES,Sfp PPTase inh,D2 PAM,TRPV1 PAM,gsp agonist,gsp antag,Menin-MLL FL inh,ClpP mod
CC(=O)c1c(C)[nH]c(C(=O)NCc2ccc(F)cc2)c1C,6%,-8,-6,-1%[15.4 µM],x,0.1,x
Cc1ccc(C(=O)N2CCN(CCNC(=O)C(=O)Nc3ccc(Cl)cc3)CC2)cc1,9%,-19,-5,15%,-6%,-1.2,1.0%
O=C(O)c1ccc2c(=O)n3c(nc2c1)/C(=C/c1ccccc1OC(F)F)CC3,2%,-1,12,u,u,11,4.2%
COc1ccc2nc(NC(=O)CN(C)S(=O)(=O)c3cccs3)sc2c1,-13%,4,-2,-13%,u,3.4,-1.7%
O=C(NCCc1ccccc1)C(=O)NCC1OCCN1S(=O)(=O)c1ccc(F)cc1 (stereo not given),13%,-7,11,-19%,-3%,0.0,-1.6%
CCN(CC)S(=O)(=O)c1cccc(NC(=O)C(=O)c2c(-c3ccccc3)cc3ccccn23)c1,11%,9,-11,14%,-1%,2.6,1.1%
COc1ccc(NC(=O)COc2ccc(-n3cnnn3)cc2)cc1OC,x,0,-2,-30%[15.4 µM],-9%,x,x
c1csc(C(c2nnnn2C2CCCCC2)N2CCN(c3nc4ccccc4s3)CC2)c1 (stereo not given),13%,-15,0,2%[15.4 µM],10%,3.1,0.1%
COc1ccccc1CCNC(=O)c1cc(-c2ccccn2)nc2ccccc12,x,-14,14,-22%,-18%,x,11%
CCOc1ccc(NC(=O)Nc2cc(C(C)C)c(O)cc2C)cc1,-1%,-5,-1,8%[15.4 µM],-10%,2.2,x
CCOCCCNS(=O)(=O)c1ccc(NC(=O)N2c3ccccc3Sc3ccccc32)cc1,10%,15,5,4%,-6%,5.1,-1.5%
COc1cc(-c2nc3sc(C)c(C)c3c(=O)o2)cc(OC)c1OC,13%,-11,-17,-17%,34%[activator],-6.0,1.8%
Cc1ccc(S(=O)(=O)N2CCN(C(=O)c3cc(-c4cccs4)nn3-c3ccccc3)CC2)cc1,x,8,8,1%,-5%,x,u
O=C(CCNc1ccc(F)cc1)c1cccc([N+](=O)[O-])c1,1%,-3,-1,-54%[inhibitor],-3%,18,-1.8%
COc1ccc(NS(=O)(=O)c2cnc[nH]2)cc1,21%,-4,-10,-1%[15.4 µM],x,-0.6,x
COCCN1CC(CNC(=O)c2cc(COc3ccc(C)c(C)c3)on2)CC1=O (stereo not given),5%,-13,5,-1%,3%,-0.4,0.0%
CCCCc1c(C)nc2ccc(Br)cc2c1SC(N)N,1%,-4,26,9%,7%,-0.4,0.0%
O=C1c2ccc(Cl)cc2S(=O)(=O)c2cccc(C(=O)N3CCN(c4ccc(Cl)cn4)CC3)c21,x,5,8,-2%,-22%,x,-6.8%
COc1ccccc1NC(=O)CSc1ccc2nnc(-c3ccccn3)n2n1,6%,-4,11,9%,10%,1.2,-2.5%
O=C(CSc1ncnc2c1nnn2-c1ccc(F)cc1)NCC1CCCO1 (stereo not given),3%,-7,2,13%,-16%,-0.7,-1.9%
Cc1ccc(Cl)c(OCC(=O)OCC(=O)c2ccc[nH]2)c1,x,-9,x,-7%,-9%,x,-24%
CN(C)C(=O)CCN1CCOCC1,2%,-8,4,-22%,-9%,0.2,0.7%
COc1ccc(-c2c(C#Cc3ccsc3)c3ccccc3n2C)cc1,-14%,-11,-19,u,-8%,-0.9,4.1%
COc1ccc(NC(=O)c2ccc3c(c2)C(=O)N(CC2CCCO2)C3=O)cc1 (stereo not given),22%,-3,-1,-7%,-1%,1.3,x
